PINK1 expr mod = changes PINK1 expression; 0.2% of 410,000 active; PINK1 immunofluorescence, high-content cytometry, 24 h; Potency, µM (series often up to 76.6 µM), for inactives: at the top dose activation (PINK1 increase), most hits filed as activators; active = well fitted activation curve with a large enough effect; inconclusive = small, poorly fitted or top-dose-only effect; inactive = flat fitted curve, though single readings scatter; cell line not stated here;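 also: potency is read from the fitted curve at half-maximal effect; % of control where 0% means no effect; nearly all actives have a fitted effect of over 65% in size; a mitochondrial uncoupler was the plate control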
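Cells are seeded, rested 12 hours, then given compound at five concentrations or DMSO for 24 hours. After fixation, blocking and antibody staining, PINK1 amount and mitochondrial localization are scored; CCCP serves as control.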
D2 ag = agonists of human D2 dopamine receptor (beta-arrestin). 0.084% of 360,000 active. P14416. DiscoveRx PathHunter D2 beta-arrestin, luminescence, 90 min; 100% = 57 uM dopamine signal. activation, % (concentration not given with the values). AID 624465; in the data active = activation above about 40%; inconclusive = about 15% to 40%; inactive = below about 15%; also: compound concentration not given in the record; the text of the record calls up to 30% inactive
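DiscoveRx PathHunter D2 beta-arrestin cells (2,100/well) attached overnight, then compound-stimulated 90 min at 37 C in HBSS/10 mM HEPES/0.1% Tween-20 buffer; beta-galactosidase complementation read by luminescence after 1 h at ambient temperature. Dopamine 57 uM final (EC100) as control.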
Sfp PPTase inh = Sfp phosphopantetheinyl transferase inhibition. Q9F4F7. Biochemical Sfp PPTase activity, qHTS. Potency, µM, inactives show max response, negative = inhibition, usual class: inhibitors. 3.5% of 310,000 active; active = well fitted inhibition curve with a large enough effect; inconclusive = small, poorly fitted or top-dose-only effect, or another doubt; inactive = no such curve, though single readings can be large or run the other way;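 also: the enzyme is Sfp with the accession as filed and its product quenches rhodamine fluorescence; potency is read from the fitted curve at half-maximal effect; 0% = enzyme reaction without inhibitor and -100% = no enzyme wells; top concentration of the series not given in the record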
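Fluorescence-quenching assay with 15 nM Sfp, 5 uM rhodamine-CoA and 12.5 uM BHQ-2-labelled ybbR peptide in pH 7.6 Hepes/MgCl2 buffer. Enzyme was pre-incubated with compound for 15 min at room temperature. Rate was taken from the 30-min fluorescence change (525/598 nm).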
CtBP-E1A inh = CtBP/E1A binding inhibition; activity change, % (test concentration not listed); 0.49% of 340,000 active; AlphaScreen GST-E1A/His-CtBP binding, 1536-well; active compounds read low; control for the full effect not named in the record; AID 651724; in the data active means activity change below about -65%; inconclusive means about -30% to -65%; inactive means above about -30%; also: % is scaled to controls: 0 for no effect and ±100 for the full control effect
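GST-E1A and His-tagged CtBP (125 nM each as 5X stock) were preincubated with pin-transferred compound for 2 h at 37 °C in the dark, then glutathione donor and nickel acceptor beads were added for 1 h before AlphaScreen reading.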
Six1-Eya2 blk = Six1/Eya2 interaction inhibition; 0.56% of 360,000 active; AlphaScreen GST-Six1/His-Eya2 binding, biochemical; active compounds read low; control for the full effect not named in the record; Q15475+O00167; AID 651725; activity change, % (test concentration not listed); in the data active = activity change below about -65%; inconclusive = about -30% to -65%; inactive = above about -30%; also: % is scaled to controls: 0 for no effect and ±100 for the full control effect
Target sequence (O00167 whole entry, looked up): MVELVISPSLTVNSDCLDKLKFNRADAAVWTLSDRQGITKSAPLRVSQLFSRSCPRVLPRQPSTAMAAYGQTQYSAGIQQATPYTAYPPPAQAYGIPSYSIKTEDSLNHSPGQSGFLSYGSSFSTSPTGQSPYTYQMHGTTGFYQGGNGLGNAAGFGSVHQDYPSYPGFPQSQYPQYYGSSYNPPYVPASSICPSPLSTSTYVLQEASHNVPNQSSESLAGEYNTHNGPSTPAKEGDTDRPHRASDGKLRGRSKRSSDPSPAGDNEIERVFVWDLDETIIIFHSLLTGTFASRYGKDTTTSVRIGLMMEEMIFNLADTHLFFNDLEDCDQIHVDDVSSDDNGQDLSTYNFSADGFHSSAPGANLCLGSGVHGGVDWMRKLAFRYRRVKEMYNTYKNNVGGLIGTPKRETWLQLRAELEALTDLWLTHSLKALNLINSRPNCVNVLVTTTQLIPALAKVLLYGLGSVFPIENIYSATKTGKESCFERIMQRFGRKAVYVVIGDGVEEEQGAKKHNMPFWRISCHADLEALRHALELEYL
Target sequence (Q15475 whole entry, looked up): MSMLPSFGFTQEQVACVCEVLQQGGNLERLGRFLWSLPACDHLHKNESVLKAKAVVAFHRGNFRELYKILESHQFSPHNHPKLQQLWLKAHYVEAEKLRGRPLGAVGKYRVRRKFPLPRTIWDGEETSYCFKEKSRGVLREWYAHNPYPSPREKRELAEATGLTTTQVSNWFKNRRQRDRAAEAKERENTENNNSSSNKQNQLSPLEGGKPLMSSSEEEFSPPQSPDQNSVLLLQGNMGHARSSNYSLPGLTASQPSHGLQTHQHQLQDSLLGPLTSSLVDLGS
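GST-Six1 + His-Eya2 (5X stock: 250/500 nM); Tris pH 8.0, 300 mM NaCl, 0.05% BSA, 0.02% Tween 20; GSH donor/Ni acceptor beads; 1 h 37 °C dark; AlphaScreen readout.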
TRPV1 PAM = human TRPV1 potentiation. TRPV1-expressing cells, Fluo-8 calcium influx, capsaicin EC20 potentiation; host cell line not named in the record; control for the full effect not named in the record. potentiation, % at 8.33 µM. 0.02% of 320,000 active; active means potentiation above 80%; inconclusive means 30% to 80%; inactive means below 30%; also: 0% is about no effect
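TRPV1-expressing cells were cultured overnight at 35.5C and loaded with Fluo-8 calcium dye for 40 to 90 min at room temperature. After a 10 s baseline, compound was added and calcium influx was read kinetically for 3 min (ex 480/em 520 nm).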
D2 PAM = human D2 receptor positive allosteric modulation; DiscoveRx D2 beta-arrestin cells, luminescence, 90 min; 100% = 57 uM dopamine signal; potentiation, % (concentration not given with the values); AID 624464; 0.23% of 360,000 active; active = potentiation of 50% or more; inconclusive = 30% to 50%; inactive = 30% or less;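 also: compound concentration not given in the record; tested on top of an EC20 dose of dopamine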
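PathHunter D2 cells, attached overnight at 37 deg C, received compound in DMSO plus dopamine at EC20 (50 nM final) for 90 min at 37 deg C. Beta-arrestin recruitment was read as luminescence after 1 h with detection reagent at ambient temperature.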
An asterisk follows results filed as active; ? = inconclusive; · = not tested or not shown; [ ] = another dose, or the depositor's remark.

SMILES	PINK1 expr mod	D2 ag	Sfp PPTase inh	CtBP-E1A inh	Six1-Eya2 blk	TRPV1 PAM	D2 PAM
COc1cc(C(=O)NC2CCN(CC(=O)NC3CCCCC3C)CC2)cc(OC)c1OC (stereo not given)	3.1%	0.5	4%	-9	14	23	-7
O=C(Nc1cccnc1)c1ccccc1Cl	-0.1%	2.4	17%	13	3	-2	-5
CC12CCC(C(=O)Nc3cccc(Cl)c3Cl)([C@H](Br)C1=O)C2(C)C (stereo not given in full)	2.4%	-5.0	12%	11	1	-6	-3
Cc1ccc(N=C2NC(=O)/C(=C/C=C/c3ccco3)S2)cc1	12%	-1.0	?	-5	?	6	-10
O=C(NCCC1=CCCCC1)C1CCN(Cc2cnn(-c3ccccc3)c2-n2cccc2)CC1	-1.8%	-2.9	3%	-4	-4	13	-19
Nc1nncn1C(=O)c1ccc(Cl)cc1Cl	0.4%	-2.5	9%	-1	9	0	-8
CCN(CC)S(=O)(=O)c1cc(C(=O)OCC(=O)Nc2c(F)cccc2F)ccc1F	1.0%	1.9	7%	-9	-4	-8	13
CN1CCc2c(sc(N)c2C(=O)O)C1	-1.1%	-0.9	28µM*	·	-3	11	-4
O=C1c2ccccc2C(=O)c2c1cccc2N1CCCC1	1.9%	4.3	-19%	-89*	-87*	-12	28
C[C@H]1CN([C@@H](C)CO)C(=O)CCCn2cc(nn2)CO[C@@H]1CN(C)C(=O)c1cc(-c2ccccc2)on1	2.4%	-8.6	·	-2	15	·	-14
O=C(CSc1ccc2ccccc2n1)NCc1ccc2c(c1)OCO2	0.8%	-2.8	-11%	-3	-2	-6	-5
COc1ccc(NC(=O)C(c2ccccc2)N(C)C(=O)CNC(C)=O)cc1 (stereo not given)	-2.9%	-0.2	3%	-13	3	-4	-5
CCCCNC(=O)C1c2cc(OC)c(OC)cc2C(=O)N(C)C1c1cccs1 (stereo not given)	-1.4%	4.2	25%	-15	5	-8	0
COc1cccc(-c2nnc(SCC(=O)N3CCCc4ccccc43)o2)c1	-1.8%	-2.1	-23%	-2	0	-2	-8
O=C(CN1CCc2ccccc2C1)Nc1cccc(S(=O)(=O)N2CCCC2)c1	0.7%	0.1	?	5	-2	7	-9
Cc1ccc(CC(=O)NC(C)CCc2ccccc2)cc1 (stereo not given)	0.3%	0.4	0%	5	6	-23	-17
Cc1ccc(S(=O)(=O)Oc2ccc(/C=N/NC(=O)c3cccnc3)cc2)cc1	4.3%	3.0	5%	3	-11	-20	-11
CCN(CC)c1nc(Nc2ccccc2)nc(Oc2ccc(C(=O)OC)cc2)n1	9.1%[38.3 µM]	11	12%	1	1	?	16
COCCn1c(SCC(=O)c2c(N)n(C3CC3)c(=O)[nH]c2=O)nnc1-c1cccc(C)c1	1.2%	-1.3	·	-2	3	-6	1
CCOC(=O)N1CCN(C(=O)c2c[nH]c3ccc(S(=O)(=O)N(C)c4ccc(OCC)cc4)cc3c2=O)CC1	-0.4%	-8.0	15%	-17	-14	-8	2
CC(=O)c1ccc(NC(=O)/C(=C\c2ccccc2)NC(=O)/C=C/c2ccccc2)cc1	-0.8%	-2.7	23%	-2	0	7	-25
COc1cc(S(=O)(=O)Nc2ncn[nH]2)ccc1Cl	8.6%	-3.8	-15%	-1	5	-1	-1
Cn1c(-c2ccccc2)cnc1SCC(=O)NCc1ccco1	0.0%[38.3 µM]	-2.5	5%	6	-3	2	-10
O=C(c1cccs1)N1CCN(C23CC4CC(CC(C4)C2)C3)CC1	0.2%	2.7	5%	-7	-23	?	-11
CC1(C)CC(NC(=O)c2cc(S(=O)(=O)N3CCOCC3)c(Cl)cc2Cl)CC(C)(C)N1	-2.0%	-3.2	·	-4	3	-3	-24
CC1(C(=O)NS(=O)(=O)c2cccs2)CCN1C(=O)C1CC1 (stereo not given)	-1.0%	-3.3	·	4	3	·	-10
Cc1ccccc1OCC(=O)Nc1ccc2c(c1)Cc1ccccc1-2	?	-0.7	6%	-2	5	3	9
COc1ccc(C=NNc2ccc(S(=O)(=O)Nc3ccccc3C(=O)O)cc2[N+](=O)[O-])c(OC)c1	0.8%	4.2	·	·	-27	·	-5
Cc1cc2c3c([nH]c2cc1S(=O)(=O)N1CCC2(CC1)OCCO2)CC(C)(C)CC3=O	1.4%	7.3	8%	·	-12	2	-10
O=C(O)CNC(=O)c1ccc(OC(F)F)cc1	-0.3%[38.3 µM]	-0.7	27%	9	7	2	4
c1ccc(-c2csc(N3CCCCCC3)n2)cc1	1.0%	-6.7	-8%	9	3	-21	-18
O=C(O)CNC(=S)N(Cc1ccccc1Cl)C1CCCC1	-0.2%	4.0	24%	4	0	2	-5
O=C(CSc1ccc(F)cc1)NC(=O)NCc1ccccc1	1.0%	-7.6	9%	14	2	3	-25
C/C(=C/C=N/Nc1nc(N2CCCCC2)nc(N2CCCCC2)n1)c1ccccc1	?	-3.1	3%	9	-4	-2	-3
CCN(CC(=O)NCc1ccc(Cl)cc1)C(=O)/C=C/c1cc(OC)c(OC)c(OC)c1	0.1%	-1.8	32%[activator]	6	-3	18	-6
Cc1ccccc1NC(=O)Cn1nc(-c2ccccc2)nc1-c1ccccc1	3.8%	1.6	-11%	-9	2	-25	-9
Cc1ccc(N(CN2C(=O)C3C4CCC(C4)C3C2=O)C(=O)c2ccco2)cc1 (stereo not given)	-1.6%	-1.1	?	·	-3	7	5
Cc1ccc2nc(NC(=O)C3CCCN(S(=O)(=O)c4cnc[nH]4)C3)sc2c1 (stereo not given)	4.9%	-1.7	14%	0	0	5	-4
Nc1c(S(=O)(=O)c2cccs2)c2nc3ccccc3nc2n1Cc1ccccc1	12%	-0.5	-4%	7	11	13	-13
CCCOc1ccc(C(=O)NNC(=S)NC(=O)c2cc(-c3ccc(Cl)cc3)nc3ccccc23)cc1	-1.3%	-10	-7%	-7	-7	-5	-44

Ordered by value in D2 PAM (lowest first): some entries from above.
Structure | D2 PAM
CC1(C)CC(NC(=O)c2cc(S(=O)(=O)N3CCOCC3)c(Cl)cc2Cl)CC(C)(C)N1 | -24
c1ccc(-c2csc(N3CCCCCC3)n2)cc1 | -18
Nc1c(S(=O)(=O)c2cccs2)c2nc3ccccc3nc2n1Cc1ccccc1 | -13
O=C(c1cccs1)N1CCN(C23CC4CC(CC(C4)C2)C3)CC1 | -11
Cc1cc2c3c([nH]c2cc1S(=O)(=O)N1CCC2(CC1)OCCO2)CC(C)(C)CC3=O | -10
O=C(O)CNC(=S)N(Cc1ccccc1Cl)C1CCCC1 | -5
Cc1ccccc1OCC(=O)Nc1ccc2c(c1)Cc1ccccc1-2 | 9

Laid out differently: three of the compounds above.
| SMILES | PINK1 expr mod | D2 ag | Sfp PPTase inh | CtBP-E1A inh | Six1-Eya2 blk | TRPV1 PAM | D2 PAM |
| --- | --- | --- | --- | --- | --- | --- | --- |
| CCN(CC(=O)NCc1ccc(Cl)cc1)C(=O)/C=C/c1cc(OC)c(OC)c(OC)c1 | 0.1% | -1.8 | 32%[activator] | 6 | -3 | 18 | -6 |
| Cc1ccccc1NC(=O)Cn1nc(-c2ccccc2)nc1-c1ccccc1 | 3.8% | 1.6 | -11% | -9 | 2 | -25 | -9 |
| Cc1ccc(N(CN2C(=O)C3C4CCC(C4)C3C2=O)C(=O)c2ccco2)cc1 (stereo not given) | -1.6% | -1.1 | ? | · | -3 | 7 | 5 |

Following part.
SMILES	PINK1 expr mod	D2 ag	Sfp PPTase inh	CtBP-E1A inh	Six1-Eya2 blk	TRPV1 PAM	D2 PAM
CCOC(=O)C1(Cc2ccccc2)CCN(Cc2csc(C(C)=O)c2)CC1	-0.4%	2.3	4%	5	1	-14	-6
CCCC(=O)NNc1cc(=O)c2c(=O)n(C)c(=O)n(C)c2[nH]1	-0.9%	-5.1	5%	3	8	-1	7
O=C(CSc1nc(C(F)(F)F)cc(=O)[nH]1)Nc1ccc2c(c1)OCCO2	2.9%	2.1	·	1	-3	1	8
CCCn1c(SCC(=O)Nc2ccccc2N2CCCCC2)nc2c1c(=O)n(C)c(=O)n2C	·	-4.7	35µM*	-7	-13	-3	3
CCc1noc(C)c1C(=O)Nc1cc(Cl)ccc1N1CCOCC1	-2.5%	-1.1	·	4	5	-5	-9
CCOc1ccc(N(CC(=O)NCc2ccccc2)C(=O)Cn2nnc(-c3ccc(C)o3)n2)cc1	4.5%	4.6	2%	-7	-3	5	-5
Cc1c(C)c2ccc(OC(C)C(=O)N3C[C@H]4C[C@@H](C3)c3cccc(=O)n3C4)c(C)c2oc1=O (stereo not given in full)	0.5%	-6.7	10%	4	-1	0	-20
Cc1cccc(NC(=O)c2ccccn2)c1C	5.8%	-4.9	3%	2	1	-8	-3
O=C(O)c1ccc(OCCn2ccnc2)cc1	-0.1%	-3.9	15%	-1	0	19	3
Cc1cc([N+](=O)[O-])nn1CC(=O)N/N=C/c1ccccc1O	0.0%	-3.6	24%	?	-92*	-7	-11
CCN(C(=O)COC(=O)c1ccc(C)c(S(=O)(=O)N2CCCCC2)c1)C1CCS(=O)(=O)C1 (stereo not given)	1.7%	-2.1	·	4	0	7	4
Cc1sc2nc(SCC(=O)N(CCO)CCO)nc(N)c2c1C	0.8%	0.7	-13%	0	0	-6	8
CCC1CCCCN1S(=O)(=O)c1ccc([N+](=O)[O-])cc1 (stereo not given)	0.0%	-4.5	0%	?	-14	3	1
COc1ccc2c(c1)c(=O)oc1cc(OCC(=O)NC3CCCCC3)ccc12	3.3%	0.1	-9%	-11	-3	12	-2
Cc1ccccc1Sc1c(C#N)c(-c2ccccc2)nn1C	7.1µM*	-0.4	?	55	43	3	-5
Cc1sc2nc(SCC(=O)N(C)Cc3ccccc3)n(-c3ccccc3)c(=O)c2c1C	16%	-3.5	-11%	-2	-7	0	15
CCOc1ccc2nc(N3C(=O)/C(=C/c4ccc(Cl)cc4)NC3=S)sc2c1	?	-5.0	2%	-10	-14	-1	-11
COc1cc2c(cc1OC)CN(C1CCCN(Cc3cc(Cl)ccc3O)C1)CC2 (stereo not given)	1.2%	-2.2	-12%	-17	-12	-6	-8
Cc1ccc(C)c(N2CC(C(=O)OCC(=O)Nc3cc(C)on3)CC2=O)c1 (stereo not given)	-0.2%	-1.4	9%	5	4	-4	-4

Compound activity as filed in PubChem.

An unsorted share of the library, and some 3.7% of all compounds hit somewhere here.
